EPAC2 antag: validation of human EPAC2 antagonists; Q8WZA2; hit rate 1.7% among 16,000; Potency, µM (series often up to 112 µM), for the others: at the top dose activity, negative = inhibition, actives largely listed as inhibitors; EPAC2 Rap1B BODIPY-GDP exchange, fluorescence; active = well fitted inhibition curve with a large enough effect; inconclusive = small, poorly fitted or top-dose-only effect; inactive = no such curve, though single readings can be large or run the other way;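 note: 100% = activation by cAMP agonist control; nearly all actives have a fitted effect of over 40% in size; the record reuses the description of the EPAC1 agonist screen; inactives centre near -10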
Target sequence (Q8WZA2 whole entry, looked up): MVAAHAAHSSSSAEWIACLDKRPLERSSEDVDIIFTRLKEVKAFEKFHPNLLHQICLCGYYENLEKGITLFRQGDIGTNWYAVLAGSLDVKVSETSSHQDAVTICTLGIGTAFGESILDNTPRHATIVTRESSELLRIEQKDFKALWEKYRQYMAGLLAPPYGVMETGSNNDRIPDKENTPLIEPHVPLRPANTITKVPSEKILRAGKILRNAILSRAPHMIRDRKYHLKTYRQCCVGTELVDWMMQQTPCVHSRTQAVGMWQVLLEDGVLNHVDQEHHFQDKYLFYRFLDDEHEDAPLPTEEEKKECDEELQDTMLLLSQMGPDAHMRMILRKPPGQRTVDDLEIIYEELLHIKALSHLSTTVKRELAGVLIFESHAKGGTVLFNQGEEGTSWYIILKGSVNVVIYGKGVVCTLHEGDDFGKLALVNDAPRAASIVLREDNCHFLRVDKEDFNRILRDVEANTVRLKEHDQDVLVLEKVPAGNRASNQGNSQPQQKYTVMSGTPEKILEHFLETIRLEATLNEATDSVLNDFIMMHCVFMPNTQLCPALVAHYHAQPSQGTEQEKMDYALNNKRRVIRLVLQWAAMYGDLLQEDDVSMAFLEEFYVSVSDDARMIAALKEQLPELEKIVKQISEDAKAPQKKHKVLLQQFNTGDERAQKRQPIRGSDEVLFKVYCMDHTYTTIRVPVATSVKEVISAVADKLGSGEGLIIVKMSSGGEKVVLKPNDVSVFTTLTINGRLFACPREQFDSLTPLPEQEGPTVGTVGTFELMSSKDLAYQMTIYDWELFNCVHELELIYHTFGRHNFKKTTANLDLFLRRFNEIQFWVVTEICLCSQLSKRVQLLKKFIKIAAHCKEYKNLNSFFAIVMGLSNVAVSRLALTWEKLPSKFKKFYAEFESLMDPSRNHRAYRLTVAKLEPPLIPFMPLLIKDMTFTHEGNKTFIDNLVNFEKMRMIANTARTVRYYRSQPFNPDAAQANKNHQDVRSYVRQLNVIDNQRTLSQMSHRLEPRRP
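Normalized against a 6.5 mM cAMP agonist control, compounds were tested on 100 nM EPAC2 exchanging Rap1B-bound BODIPY-GDP (250 nM) for 50 uM GDP. Fluorescence drop (ex 480, em 540 nm) was tracked at room temperature over 30 min at 5-min intervals.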
* marks the source's active call; other numbers are inactive results; ? = inconclusive; & = joins results of further samples; ! = not confirmed by another sample; [ ] = dose if it differs, or a comment. Potency is the fitted concentration of half-maximal effect. Some of the compounds tested; the hit share may differ from the screen's.

SMILES	EPAC2 antag
[N-]=[N+]=N[C@@H](CCN1CC[C@H](O)CCC1=O)c1ccccc1	-17.9%
CSc1ccc(/C=C2/C(C)=C(CC(=O)O)c3cc(F)ccc32)cc1	?
Nc1ncnc2c1nc(Br)n2[C@H]1O[C@H]2COP(=O)(O)O[C@H]2[C@@H]1O	3.55µM*
O=C(c1csnn1)N1CCC2(CC1)CN(Cc1cc(C(F)(F)F)cc(C(F)(F)F)c1)C2	?
CC1=C(C(=O)OCCN(Cc2ccccc2)c2ccccc2)C(c2cccc([N+](=O)[O-])c2)C(P2(=O)OCC(C)(C)CO2)=C(C)N1 (stereo unspecified)	-14.2%
O=C(NC[C@H](O)c1ccccc1)c1ccccc1	-32.3%
NCCCCCCNS(=O)(=O)c1ccc2c(Cl)cccc2c1	-13.5%
CC(C)(c1ccc(O)cc1)c1ccc(O)cc1	?
COc1ccc(N2CCN(C(=O)c3cc(NC(C)=O)c4c(c3)ncn4CCc3ccccn3)CC2)cc1	-2.6%
Cc1ccsc1CN1CCc2nnc(CCNC(=O)c3ccc(F)cc3)n2CC1	1.6%
CCC(O)CNC(=O)c1cnn(-c2nccc(-c3cc(C)sc3C)n2)c1C1CC1 (stereo unspecified)	?
CN(C)c1ncc2nc(CCc3ccccc3)c(=O)n(Cc3ccc(F)cc3)c2n1	-23.5%
N#Cc1ccc(CN2CCC3(CC2)CCN(C(=O)c2csnn2)CC3)cc1	-7.2%
Cc1cc(C=O)cc(C)c1[N+](=O)[O-]	-9.6%
CC(=O)N[C@@H](CCC(N)=O)C(=O)O	19.0%
COCCn1c(=O)c(-c2cn(C)c3ccccc23)nc2cnc(N3CCNCC3)nc21	8.1%
COCC1CCCN(Cc2ccc3c(c2)CN(C(=O)c2cnn(C(C)C)c2)CCO3)C1 (stereo unspecified)	-25.3%
Cn1c(-c2ccncc2)nc2cc(C(=O)N3CCCC3c3nccs3)cc(NC(=O)C3CCC3)c21 (stereo unspecified)	0.0%
CC1(C)O[C@H]2C[C@@H]3[C@H]4CCC5=CC(=O)C=C[C@]5(C)[C@@]4(F)[C@@H](O)C[C@]3(C)[C@]2(C(=O)CO)O1	3.6%
c1ccc2c(N3CCNCC3)nc(-c3ccoc3)nc2c1	-7.2%
COc1ccc(CCNc2ncnc3sc(C(=O)N4CCCCC4)c(C)c23)cc1OC	-6.1%
COc1cc(C/C=C/c2ccccc2)c(OC)cc1O	-6.4%
O=C(C[n+]1csc2ccccc21)c1ccccc1	-29.3%
CC(=O)NCCNc1nc(-c2c(C)noc2C)nc2ccccc12	-8.5%
O=C(c1cccc(F)c1)N1CCC2(CC1)CN(c1ccccn1)C2	-35.7%
Other results.
SMILES	EPAC2 antag
CSc1ccc(C(=O)c2[nH]c(=O)[nH]c2C)cc1	-17.1%&-6.0%
Cc1c(C(=O)N(C)C2CCOC2)sc2ncnc(NCc3ccc4c(c3)OCO4)c12 (stereo unspecified)	4.0%
CN(C)Cc1ccccc1-c1nc(N2CCOCC2)c2ccccc2n1	-4.0%
Cc1cnc(CNc2ncnc3ccc(-c4ccc(C(=O)N(C)C)cc4)cc23)cn1	-15.6%
O=c1ccc2cc3ccoc3cc2o1	-5.4%
COc1ccc(-n2c(=O)c(-c3ccccc3)nc3cnc(N4CCOCC4)nc32)cc1	0.8%
Cc1ccccc1-c1nc(N(C)C)c2ccccc2n1	-29.9%
CC(=O)NCCNc1ccnc(-c2ccccc2C)n1	-13.8%
Cc1cnc(CNc2ccnc(-c3ccc(N(C)C)cc3)n2)cn1	-4.7%
CN(C)c1ccc(/C=C/c2ccnc3c2ccc2c(/C=C/c4ccc(N(C)C)cc4)ccnc23)cc1	?
CC1(C)OC[C@@H](COC(=O)CCc2ccc(OC[C@@H](O)CNCCNC(=O)N3CCOCC3)cc2)O1	86.4%&-18.4%[activator]
Cc1ccccc1-c1nc(NCc2cccnc2)c2ccccc2n1	-15.3%
CCOC(=O)Cc1cccc(-c2cc(CCCCCCc3ccc(O[C@H]4O[C@H](COC(C)=O)[C@@H](OC(C)=O)[C@H](OC(C)=O)[C@@H]4OC(C)=O)c(-c4cccc(CC(=O)OCC)c4)c3)ccc2O[C@H]2O[C@H](COC(C)=O)[C@@H](OC(C)=O)[C@H](OC(C)=O)[C@@H]2OC(C)=O)c1	9.9%
CC(O)CN(CCN(CC(C)O)CC(C)O)CC(C)O (stereo unspecified)	10.4%
CCCN1CCC(=O)N(CCN=[N+]=[N-])CC1	7.4%
O=C(O)CCC(=O)OC[C@@H](NC(=O)C(Cl)Cl)[C@H](O)c1ccc([N+](=O)[O-])cc1	-4.0%
OC1(c2cccnc2)CCN(Cc2ccc3c(c2)CN(Cc2cc(F)ccc2F)CCO3)CC1	-19.5%
CC1C(=O)OC2C(O)C34C5CC(C(C)(C)C)C36C(OC(=O)C6O)OC4(C(=O)O5)C12O (stereo unspecified)	-16.5%
COCCn1c(=O)c(-c2ccc(OC)cc2)nc2cnc(N3CCNCC3)nc21	-13.6%
COc1ccc(/C=C/C(=O)c2cc(O)ccc2O)cc1	?
Cc1c(C)c2c(c(C)c1O)CCC(C)(CCCC(C)CCCC(C)CCCC(C)C)O2 (stereo unspecified)	-26.4%
COCC(=O)N1CCC2(CC1)CN(C(=O)Nc1ccc(OC)cc1)C2	-12.6%
Clc1ccccc1-c1nccc(NCCN2CCOCC2)n1	-12.8%
Fc1ccc(CN(C2=NCCN2)c2c(Cl)cccc2Cl)cc1	-10.6%
CC(C)(C)c1ccc(C(=O)C[n+]2ccc(Cl)c3ccc(Cl)cc32)cc1	-5.2%

Random excerpt: 2 records from the list.
SMILES	EPAC2 antag
CC1(C)OC[C@@H](COC(=O)CCc2ccc(OC[C@@H](O)CNCCNC(=O)N3CCOCC3)cc2)O1	86.4%&-18.4%[activator]
CSc1ccc(C(=O)c2[nH]c(=O)[nH]c2C)cc1	-17.1%&-6.0%

Continuation.
SMILES	EPAC2 antag
COCCn1c(=O)c(-c2ccc(OC)cc2)nc2cnc(N3CCOCC3)nc21	4.9%
COc1cc(=O)n(C)c2c(OCC(O)C(C)(C)O)cccc12 (stereo unspecified)	-11.6%
COc1ccc(C(=O)N2CCC[C@@]3(CCN(Cc4ccncc4)C3)C2)cc1	-4.2%
OCCCc1ccccc1	-11.2%
CO/N=C(\C(=O)N[C@@H]1C(=O)N2C(C(=O)O)=C(CSc3nc(=O)c(O)nn3C)CS[C@H]12)c1csc(N)n1	23.1%
CCOC(=O)C[C@H]1c2cc(C(F)(F)F)ccc2S(=O)(=O)N1Cc1ccccc1	?
O=C(C[n+]1cccc2cccc(O)c21)c1ccc(Br)cc1	-16.9%
Cc1cnc(-n2ncc(C(=O)N(C)C3CCOC3)c2-c2cccs2)nc1-c1ccc(F)cc1 (stereo unspecified)	-2.1%
O=c1c(-c2cc(F)cc(F)c2)nc2cnc(N3CCNCC3)nc2n1CCc1ccccc1	-17.4%
O=C(NC(c1cccnc1)C(F)(F)F)c1cnn(-c2nccc(-c3cccs3)n2)c1C1CC1 (stereo unspecified)	-16.0%
N#C/C(=C\c1ccc(O)c(O)c1)C(=O)Nc1ccccc1	-12.6%&-29.8%
COC(=O)c1cn([C@@H]2C[C@@H](C(=O)Nc3cccc(SC)c3)N(C3CCCC3)C2)nn1	1.1%
Cc1cc(-c2ccnc(-n3ncc(C(=O)NCC(C)(C)N4CCOCC4)c3C)n2)c(C)s1	-7.4%
O=S(=O)(c1ccccc1)N1CCC2(CC1)CN(C(c1ccccc1)c1ccccc1)C2	?
CN(C)C(=O)Oc1cccc([N+](C)(C)C)c1	-20.0%&-11.4%&-1.5%
COc1ccc(CN2CCC3(CCC(CNC(=O)c4ccco4)O3)CC2)cc1OC (stereo unspecified)	-2.3%
CN1CCc2cc3c(cc2C(=O)Cc2ccc4c(c2C1)OCO4)OCO3	-18.0%
COc1ccc(CNc2ncncc2-c2c(C)noc2C)c(OC)c1	-21.1%
O=S(=O)(c1ccccc1)N1CCC2(CCCN(C(c3ccccc3)c3ccccc3)C2)CC1	-15.7%
COC(=O)c1ccccc1C(=O)N1CCc2c(cnc(C)c2CNC(=O)c2ccccc2F)C1	-0.2%
Cc1noc(C)c1-c1nc(NCCN2CCOCC2)c2ccccc2n1	-13.1%
CCc1cc(C(=O)NCC2Cc3cc(-c4ccccc4C(C)=O)ccc3O2)no1 (stereo unspecified)	-33.3%
O=C(Nc1ccccc1)N1CCC2(CC1)CCN(C(=O)c1ccco1)CC2	-18.9%
C[C@@H](CSc1ccc(Br)cc1)CN1CC[C@H](NC(=O)OCc2ccccc2)CCC1=O	?
CC1(C)C(=O)C=C[C@]2(C)C1CC(=O)[C@]1(C)C2CC[C@@]2(C)C(c3ccoc3)OC(=O)C3O[C@@]321 (stereo partly specified)	-6.6%
Going on with the list.
SMILES	EPAC2 antag
CC(C)C[C@@H]1NC(=O)[C@H](CCCN)NC(=O)[C@H](C(C)C)NC(=O)[C@@H]2CCCN2C(=O)[C@@H](Cc2ccccc2)NC(=O)[C@H](CC(C)C)NC(=O)[C@H](CCCN)NC(=O)[C@H](C(C)C)NC(=O)[C@@H]2CCCN2C(=O)[C@@H](Cc2ccccc2)NC1=O	?
CC(C)(O)C#Cc1ccc(CN2CCc3nnc(CCNC(=O)c4ccco4)n3CC2)cc1	-31.5%
COc1ccc2cc(CNC3CCS(=O)(=O)C3)c(-c3ccc(OC)c(OC)c3)nc2c1 (stereo unspecified)	-7.7%
O=c1cc(-c2ccc(O)cc2O)oc2ccccc12	-7.9%
CCOC(OCC)P(=O)(O)CCCNCc1ccc(Cl)c(Cl)c1	-6.6%&-18.9%
CN=C(NC)NCc1ccccc1	2.9%
NS(=O)(=O)c1ccc(Cl)c(S(N)(=O)=O)c1	?
CS(=O)(=O)N1CCC2(CC1)CN(c1ncccn1)C2	-22.4%
Cc1noc(C)c1C(=O)N1CCC[C@@]2(CCN(Cc3ccc(C#N)cc3)C2)C1	-19.8%
COc1ccccc1-c1nccc(NCc2cccnc2)n1	-10.4%
O=C(c1ccncc1)N1CCC2(CC1)CN(c1ccccc1)C2	-30.5%
CN1CCN(c2ncc3nc(-c4ccccc4)c(=O)n(Cc4ccc(F)cc4)c3n2)CC1	-16.4%
COc1cccc(Cn2c(=O)c(C)nc3cnc(N4CCN(C)CC4)nc32)c1	-8.3%
Cc1cccc(C2CN(C)CCc3c2cc(O)c(O)c3Cl)c1 (stereo unspecified)	-19.7%
Cc1cc(C)c(S(=O)(=O)Nc2ccccc2C(F)(F)F)c(C)c1	44.7µM*
Cc1[nH]c2ccccc2c1/C=C/c1cnc2ccccc2n1	-4.8%
Cc1ccc2nc(CNC(=O)c3cc(NC(=O)c4ccccc4)cc4ncn(C5CCCC5)c34)cn2c1	-7.6%
CC(=O)N1CCC[C@@]2(CCN(Cc3cc(C(F)(F)F)cc(C(F)(F)F)c3)C2)C1	?
COc1ccccc1C1CN(Cc2cccn2-c2ncccn2)Cc2ccccc2O1 (stereo unspecified)	-23.2%
Cc1noc(C)c1C(=O)N1CCC2(CC1)CCN(c1ccncc1)CC2	-12.6%
COc1cc(C)c(/C=C/C(C)=C/C=C/C(C)=C/C(=O)O)c(C)c1C	25.1µM*!
COc1cccc(Cn2c(=O)c(CCc3ccccc3)nc3cnc(N(C)C)nc32)c1	36.2%[activator]
COc1cc(=O)n2c(c1C(=O)NC(C)c1ccco1)CCN(Cc1cc3ccccc3o1)CC2 (stereo unspecified)	?
Cc1nn(-c2ccccc2)c(C)c1CC(=O)NCC1Cc2cc(F)cc(-c3cccnc3)c2O1 (stereo unspecified)	?
Cc1cnc(CNc2cc(-c3ccccc3CN(C)C)ncn2)cn1	-8.2%

The last 6 compounds of the part above are carried over, then new ones follow:
SMILES	EPAC2 antag
Cc1noc(C)c1C(=O)N1CCC2(CC1)CCN(c1ccncc1)CC2	-12.6%
COc1cc(C)c(/C=C/C(C)=C/C=C/C(C)=C/C(=O)O)c(C)c1C	25.1µM*!
COc1cccc(Cn2c(=O)c(CCc3ccccc3)nc3cnc(N(C)C)nc32)c1	36.2%[activator]
COc1cc(=O)n2c(c1C(=O)NC(C)c1ccco1)CCN(Cc1cc3ccccc3o1)CC2 (stereo unspecified)	?
Cc1nn(-c2ccccc2)c(C)c1CC(=O)NCC1Cc2cc(F)cc(-c3cccnc3)c2O1 (stereo unspecified)	?
Cc1cnc(CNc2cc(-c3ccccc3CN(C)C)ncn2)cn1	-8.2%
OC[C@H]1O[C@H](n2cnc3c(N[C@H]4CCC[C@@H]4O)ncnc32)[C@H](O)[C@@H]1O	-12.8%
C#C[C@]1(O)CC[C@H]2[C@@H]3CCC4=Cc5oncc5CC4(C)[C@H]3CCC21C (stereo partly specified)	-6.0%
N#Cc1cccc(-c2ccc3ncnc(NCc4cccs4)c3c2)c1	-7.3%
CC(C)(C)NCC(O)CSc1nc(-c2ccc(C(N)=O)s2)cs1 (stereo unspecified)	2.7%
O=C1OC(OC(=O)c2cccnc2Nc2cccc(C(F)(F)F)c2)c2ccccc21 (stereo unspecified)	-4.5%
CCNc1ncc2nc(CCc3ccccc3)c(=O)n(Cc3ccc(F)cc3)c2n1	-20.1%
Cc1ccccc1-c1nc(-n2ccnc2)c2ccccc2n1	?
CC1(C)CC[C@]2(C(=O)O)CC[C@@]3(C)C(=CCC4[C@@]5(C)CCC(O)[C@@](C)(CO)C5CC[C@@]43C)C2C1 (stereo partly specified)	1.4%
COc1ccccc1CN1CCC2(CC1)CCN(C(=O)c1csnn1)CC2	-26.0%
CCNc1ncc2nc(-c3cc(F)cc(F)c3)c(=O)n(-c3ccccc3)c2n1	13.1%
Nc1nc2c(c(=O)[nH]1)N=C(CNc1ccc(C(=O)NC(CCC(=O)O)C(=O)O)cc1)CN2 (stereo unspecified)	1.1%
Cc1cc(OC(=O)c2c(C)cc(O)cc2O)cc(O)c1C(=O)O	-29.3%&-3.9%

Compound activity: PubChem BioAssay, National Center for Advancing Translational Sciences (NCATS)
